Env fusion inh – inhibitors of HIV Env-mediated cell fusion | inhibition, % at 12.3 µM | HeLa-JRFL Env/CEM21 cell fusion, luciferase | 360,000 tested, 1.1% active;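 active means mean replicate inhibition score of at least 50 and every replicate individually at or above 50; inconclusive means only one of the two criteria met; inactive means mean below 50 and not all replicates reaching 50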;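 further: 0% = plate neutral controls and 100% = maraviroc near 300 nM; one replicate is shown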
The depositor's hits bear a star; ? = inconclusive; [ ] = remark or other dose.

Env fusion inh	mol
-8[16.7 µM]	CN1c2ccc(-c3ccc(C#N)cc3)cc2[C@@H]2[C@@H](CCN2C(=O)NC2CCCCC2)[C@@H]1CO
62*	CC(=O)C1=C(C)N(Cc2ccc(Cl)cc2)C(=S)NC1c1ccc(F)cc1 (stereo not given)
-11	Nc1ccn([C@@H]2O[C@H](C(=O)N3CCN(C(=O)C(F)(F)F)CC3)[C@@H](O)[C@H]2O)c(=O)n1
-21[16.7 µM]	O=C(C[C@@H]1CC[C@@H](NC(=O)Cc2ccccn2)[C@@H](CO)O1)NCCc1ccncc1
7[16.7 µM]	C[C@H]1CN([C@@H](C)CO)C(=O)c2cc(NC(=O)c3ccncc3)ccc2O[C@H]1CN(C)Cc1ccc(Cl)c(Cl)c1
-68	COC(=O)C1=C(C)N(Cc2ccccc2C(F)(F)F)C(=NCc2cc(OC)c(OC)c(OC)c2)NC1c1ccc(Cl)cc1 (stereo not given)
-9[16.7 µM]	CO[C@H]1CN(C)C(=O)c2cc(NC(=O)c3ccc4c(c3)OCO4)ccc2OC[C@H](C)N(CC2CC2)C[C@H]1C
-12[16.7 µM]	C[C@@H]1CN([C@@H](C)CO)C(=O)c2cc(NC(=O)NC3CCCCC3)ccc2O[C@@H](C)CCCCO[C@H]1CN(C)CC1CC1
31[16.7 µM]	O=C(C[C@H]1C=C[C@H](NC(=O)c2ccccc2)[C@@H](CO)O1)NCc1ccc(Oc2ccccc2)cc1
6[16.7 µM]	COCC(=O)Nc1ccc2c(c1)OC[C@@H](C)N(C(=O)c1ccccn1)C[C@@H](C)[C@H](OC)CN(C)C2=O
-25	CCc1cccc(-n2c(C)cc(O)cc2=O)c1
-13[16.7 µM]	CO[C@@H]1CC[C@@H]2CCN(C)C(=O)C[C@@H](c3ccccc3)CN(C)C(=O)c3cc(C#N)ccc3OC[C@@H]1O2
32[16.7 µM]	CC(C)NC(=O)Nc1cccc2c1O[C@@H](CN(C)CC1CCCCC1)[C@H](C)CN([C@@H](C)CO)C2=O
-79[16.7 µM]	Cc1noc(C)c1NC(=O)Nc1ccc2c(c1)C(=O)N(C)[C@H]1CC[C@H](CC(=O)NCc3ccc(Cl)cc3)O[C@@H]1CO2
2[16.7 µM]	CO[C@@H]1CN(C)C(=O)c2cc(NC(=O)C3CC3)ccc2OC[C@H](C)N(Cc2cncnc2)C[C@H]1C
-7[16.7 µM]	CCS(=O)(=O)Nc1ccc2c(c1)C(=O)N(C)C[C@@H](OC)[C@@H](C)CN(C(=O)c1ccc3c(c1)OCO3)[C@@H](C)CO2
21[16.7 µM]	CC(C)NC(=O)Nc1ccc2c(c1)CC(=O)N([C@@H](C)CO)C[C@H](C)[C@H](CN(C)CC1CC1)O2
0[16.7 µM]	CO[C@@H]1CN(C)C(=O)c2ccc(NC(=O)c3ccno3)cc2OC[C@H](C)NC[C@@H]1C
-18[16.7 µM]	CO[C@H]1CN(C)C(=O)c2cc(NC(=O)Nc3c(C)noc3C)ccc2OC[C@H](C)N(C)C[C@@H]1C
11[16.7 µM]	CNC(=O)C[C@@H]1CC[C@@H]2[C@@H](COc3ccc(NC(=O)Nc4ccccc4F)cc3C(=O)N2C)O1
17	C=CCO[C@H]1CN(C(=O)OC)[C@@H](c2ccccc2Br)C[C@H]1OCC=C
3	CC1CCCCN1S(=O)(=O)c1cc2c(=O)nc3ccccn3c2cc1Cl (stereo not given)
6[16.7 µM]	COc1ccc(S(=O)(=O)N(C)C[C@@H]2OCCCC[C@@H](C)Oc3ccc(NS(=O)(=O)c4cn(C)cn4)cc3C(=O)N([C@H](C)CO)C[C@@H]2C)cc1
0[16.7 µM]	C[C@@H]1CN([C@@H](C)CO)C(=O)Cc2cc(NC(=O)Nc3ccc(C(F)(F)F)cc3)ccc2O[C@H]1CN(C)S(=O)(=O)c1ccc(Cl)cc1
5[16.7 µM]	CO[C@H]1CN(C)C(=O)c2cccc(C#N)c2OCC[C@@H]2CC[C@@H](OC)[C@H](CN(C)C(=O)[C@@H]1C)O2
-92[16.7 µM]	C/C(=C\c1ccccc1)C(=O)N1CCC=CC1=O
-70	O=C(CC1CCCC1)N[C@H](C(=O)N1CCC[C@H]1C(=O)NC1CCCC1)C1CCCCC1
-3[16.7 µM]	Cc1ccccc1S(=O)(=O)N1C[C@@H](O)COC[C@H]2O[C@@H](CC(=O)NCCc3ccccc3)CC[C@@H]21
-12	CC(=O)C1=C(C)N(Cc2ccc(F)cc2)C(=S)NC1c1cccc(Br)c1 (stereo not given)
32[16.7 µM]	O=C(C[C@H]1CC[C@H]2[C@@H](COC[C@H](O)CN2Cc2ccc(Oc3ccccc3)cc2)O1)Nc1nccs1
-26[16.7 µM]	CC(C)NC(=O)Nc1ccc2c(c1)C(=O)N([C@H](C)CO)C[C@H](C)[C@@H](CN(C)CC1CCCCC1)OCCCC[C@H](C)O2
-24[16.7 µM]	Cc1noc(C)c1NC(=O)Nc1ccc2c(c1)C(=O)N([C@@H](C)CO)C[C@H](C)[C@H](CN(C)Cc1ccc(C(F)(F)F)cc1)O2
9	C=CCN1C(=O)c2n[nH]c(COC)c2C1c1ccc(Br)cc1 (stereo not given)
-2[16.7 µM]	C[C@@H]1CN([C@@H](C)CO)C(=O)Cc2cc(NC(=O)Nc3ccc4c(c3)OCO4)ccc2O[C@H]1CN(C)S(=O)(=O)c1ccc(F)cc1
-17[16.7 µM]	COc1ccc2c3c(n(C)c2c1)[C@H](CO)N(C(=O)c1cnccn1)CC31CCN(C(=O)c2cnccn2)CC1
-44	Nc1[nH]c(C(=O)c2ccccc2)c(-c2ccccc2)c1C(=O)NCCc1c[nH]c2ccccc12
-14	COCCCNC(=O)C[C@H]1C[C@@]2(C(=O)OC)C(=C[C@H](C(C)(C)C)O[C@@H]2C)N(Cc2ccc3c(c2)OCO3)C1=O
-14[16.7 µM]	COc1ccc(C#Cc2ccc3c(c2)O[C@@H](CN(C)C(=O)CN2CCOCC2)[C@@H](C)CN([C@@H](C)CO)S3(=O)=O)cc1
-2[16.7 µM]	CO[C@@H]1CN(C)C(=O)c2cc(NC(=O)c3ccccc3F)ccc2OC[C@H](C)NC[C@@H]1C
9	C=CC(=O)NC1CCCCN(CCC)C1=O (stereo not given)
50[16.7 µM]	COc1cccc(S(=O)(=O)N2CCC3(CC2)CN(C(=O)Nc2ccc(F)cc2)[C@@H](CO)c2[nH]c4cc(OC)ccc4c23)c1
7	CCCCc1c(-c2ccccc2OC)ncn1Cc1cccc(OC)c1
-5[16.7 µM]	C[C@@H]1CN([C@@H](C)CO)C(=O)Cc2cc(NS(=O)(=O)c3ccc(F)cc3)ccc2O[C@@H]1CN(C)Cc1ccc(Cl)c(Cl)c1
-6	Cc1cc(Nc2ccc(OC(F)F)cc2)cc(=O)n1-c1ccc(OC(F)F)cc1
3[16.7 µM]	CNC[C@H]1Oc2c(NS(=O)(=O)c3ccc(OC)cc3)cccc2C(=O)N([C@@H](C)CO)C[C@@H]1C

Reprinted from the part before: 4 entries; new compounds follow.
Env fusion inh	mol
7	CCCCc1c(-c2ccccc2OC)ncn1Cc1cccc(OC)c1
-5[16.7 µM]	C[C@@H]1CN([C@@H](C)CO)C(=O)Cc2cc(NS(=O)(=O)c3ccc(F)cc3)ccc2O[C@@H]1CN(C)Cc1ccc(Cl)c(Cl)c1
-6	Cc1cc(Nc2ccc(OC(F)F)cc2)cc(=O)n1-c1ccc(OC(F)F)cc1
3[16.7 µM]	CNC[C@H]1Oc2c(NS(=O)(=O)c3ccc(OC)cc3)cccc2C(=O)N([C@@H](C)CO)C[C@@H]1C
-1[16.7 µM]	CCCN1C[C@H](C)[C@@H](OC)CN(C)C(=O)c2cc(NS(C)(=O)=O)ccc2OC[C@H]1C
8	CCOC(=O)CC1(Cc2ccccc2)Oc2ccccc2O1
-14[16.7 µM]	CO[C@H]1CN(C)C(=O)c2cc(NC(C)=O)ccc2OC[C@@H](C)N(Cc2cccnc2)C[C@@H]1C
-7[16.7 µM]	CO[C@@H]1CC[C@@H]2CCOc3c(C#N)cccc3C(=O)N(C)[C@H](C)C(=O)N(C)C[C@H]1O2
2[16.7 µM]	Cc1cccc(S(=O)(=O)N[C@@H]2CC[C@@H](CCNC(=O)c3cnccn3)O[C@H]2CO)c1
-1[16.7 µM]	C[C@@H]1CCCCO[C@H](CN(C)S(C)(=O)=O)[C@H](C)CN([C@@H](C)CO)C(=O)c2cc(NC(=O)c3ccncc3)ccc2O1
2[16.7 µM]	O=C(C[C@H]1C[C@H]2c3cc(NC(=O)CC4CC4)ccc3O[C@H]2[C@@H](CO)O1)NCC1CC1
-5	CC(C)C[C@H](NC(=O)c1ccc(Cl)c(Cl)c1)C(=O)N1CCC[C@H]1C(=O)NCc1ccccc1
-39	C[C@@H]1NS(=O)(=O)c2cccc(Cl)c2O[C@@H]1c1ccccc1
13[16.7 µM]	CN(C)CC(=O)N1[C@@H]2c3ccc(C4=CCCCC4)c(=O)n3C[C@@H]2[C@@H](CO)[C@@H]1C(=O)Nc1nccs1
-13[16.7 µM]	Cc1ccccc1S(=O)(=O)N1C[C@@H](O)COC[C@@H]2O[C@@H](CC(=O)O)CC[C@H]21
22[16.7 µM]	COc1cccc(CN(C)C[C@@H]2OCc3cnnn3CCCC(=O)N([C@H](C)CO)C[C@@H]2C)c1
-23[16.7 µM]	C[C@@H]1CN([C@H](C)CO)C(=O)c2c(c3ccccc3n2C)-c2ccccc2CO[C@H]1CN(C)C(=O)CCN(C)C
-4[16.7 µM]	CN(C)CC(=O)N1[C@@H]2Cn3c(ccc(-c4cccnc4)c3=O)[C@H]1[C@@H](C(=O)NC1CCC1)[C@@H]2CO
-4[16.7 µM]	COc1cccc(C(=O)Nc2ccc3c(c2)C(=O)N(C)C[C@@H](OC)[C@H](C)CN(C(=O)C2CCOCC2)[C@H](C)CO3)c1
10[16.7 µM]	COCC(=O)Nc1ccc2c(c1)C(=O)N(C)[C@@H]1CC[C@@H](CC(=O)N3CCc4ccccc4C3)O[C@@H]1CO2
-14	CC(=O)Nc1ccc(S(=O)(=O)NCC2CCN(C(=O)C(=O)c3cccs3)CC2)cc1
5[16.7 µM]	CN1CCN(C(=O)C[C@@H]2C[C@@H]3c4cc(NS(C)(=O)=O)ccc4O[C@@H]3[C@@H](CO)O2)CC1
0[16.7 µM]	O=C(N[C@@H]1CC[C@H](CCNC(=O)c2cnccn2)O[C@H]1CO)c1ccc2c(c1)OCO2
-4[16.7 µM]	C[C@@H]1CCCCO[C@H](CN(C)C(=O)Nc2ccccc2)[C@@H](C)CN([C@H](C)CO)C(=O)c2cc(NC(=O)Nc3ccccc3)ccc2O1
-7[16.7 µM]	CNC[C@@H]1OCCCC[C@H](C)Oc2ccc(NC(=O)Nc3ccc(C(F)(F)F)cc3)cc2C(=O)N([C@H](C)CO)C[C@H]1C
7[16.7 µM]	CO[C@@H]1CC[C@@H]2CCN(C)C(=O)[C@@H](C)N(C)C(=O)c3cc(C#N)ccc3OC[C@@H]1O2
-8[16.7 µM]	C[C@@H]1CCCCO[C@H](CN(C)CC2CCCCC2)[C@@H](C)CN([C@H](C)CO)C(=O)c2cc(NC(=O)c3ccncc3)ccc2O1
?	COC(=O)[C@@H]1[C@@H](CO)[C@@H]2Cn3c(ccc(-c4cccnc4)c3=O)[C@@H]2N1Cc1cccc(F)c1
9	Cc1ccc(S(=O)(=O)N(C)[C@H]2C[C@H]3c4[nH]c5cccc(-c6ccccc6)c5c4CCN3C(=O)[C@H]2[C@H](C)O)cc1
-4[16.7 µM]	COCC(=O)N1[C@@H]2c3ccc(/C=C/c4ccccc4)c(=O)n3C[C@H]1[C@H](CO)[C@H]2C(=O)N1CCOCC1
-2[16.7 µM]	CS(=O)(=O)Nc1ccc2c(c1)[C@H]1C[C@@H](CC(=O)NCC3CC3)O[C@@H](CO)[C@H]1O2
-16[16.7 µM]	CNC[C@@H]1OCCCC[C@H](C)Oc2ccc(N(C)C)cc2C(=O)N([C@H](C)CO)C[C@H]1C
-6[16.7 µM]	C[C@@H]1CN([C@@H](C)CO)C(=O)CCCn2cc(nn2)CO[C@@H]1CN(C)Cc1cccc(C(F)(F)F)c1
4[16.7 µM]	C[C@H](CO)N1C[C@H](C)[C@@H](CN(C)C(=O)Nc2cccc3ccccc23)Oc2ccc(NS(C)(=O)=O)cc2C1=O

As entered above:
Under Env fusion inh, Nc1[nH]c(C(=O)c2ccccc2)c(-c2ccccc2)c1C(=O)NCCc1c[nH]c2ccccc12 is entered as -44
Under Env fusion inh, CN1c2ccc(-c3ccc(C#N)cc3)cc2[C@@H]2[C@@H](CCN2C(=O)NC2CCCCC2)[C@@H]1CO is entered as -8[16.7 µM]

Part of the list above, with each value named:
C[C@@H]1CN([C@@H](C)CO)C(=O)Cc2cc(NS(=O)(=O)c3ccc(F)cc3)ccc2O[C@@H]1CN(C)Cc1ccc(Cl)c(Cl)c1
  Env fusion inh: -5[16.7 µM]

Cc1cc(Nc2ccc(OC(F)F)cc2)cc(=O)n1-c1ccc(OC(F)F)cc1
  Env fusion inh: -6

CNC[C@H]1Oc2c(NS(=O)(=O)c3ccc(OC)cc3)cccc2C(=O)N([C@@H](C)CO)C[C@@H]1C
  Env fusion inh: 3[16.7 µM]

Returning to the listing, repeating the 2 entries before the break.
Env fusion inh	mol
-6[16.7 µM]	C[C@@H]1CN([C@@H](C)CO)C(=O)CCCn2cc(nn2)CO[C@@H]1CN(C)Cc1cccc(C(F)(F)F)c1
4[16.7 µM]	C[C@H](CO)N1C[C@H](C)[C@@H](CN(C)C(=O)Nc2cccc3ccccc23)Oc2ccc(NS(C)(=O)=O)cc2C1=O
3[16.7 µM]	O=C(O)C[C@@H]1C[C@@H]2c3cc(NC(=O)Nc4ccc(C(F)(F)F)cc4)ccc3O[C@@H]2[C@H](CO)O1
7	O=Cc1ccc([B-](F)(F)F)o1
25[16.7 µM]	C[C@H](CO)N1C[C@H](C)[C@H](CN(C)CC2CC2)OCCCC[C@H](C)Oc2ccc(NC(=O)Nc3ccccc3)cc2C1=O
-4[16.7 µM]	CO[C@H]1CN(C)C(=O)c2cc(NC(=O)C3CC3)ccc2OC[C@H](C)N(Cc2cncnc2)C[C@H]1C

Source: PubChem BioAssay

A portion of the library; rates above refer to the full screens.
